Screening results (PubChem BioAssay)
Yeast UUG start: modulators of start codon recognition fidelity in yeast. S. cerevisiae UUG-firefly luciferase reporter, luminescence/redox ratio. activity score, % at 18.7 µM. 350,000 compounds, 0.13% hits. AID 602363;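 active = replicate mean at a twofold rise or more, about +100% in these data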;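 note: firefly luciferase made from a UUG start codon reports start codon fidelity; reporter light over untreated wells divided by growth signal over untreated wells; some hits fall short of that in this replicate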
MT1-MMP act inh: MT1-MMP (human) activation inhibition. 360,000 compounds, 0.061% hits. GFP/RFP ratio change, % at 20 µM. P50281. HT1080 RFP-PRO-GFP cells, GFP/RFP ratio fluorescence, overnight; percent of plate control window, DMSO zero;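 active = GFP/RFP ratio change of at least 30% with cell ATP level not reduced by more than half and red fluorescence within 50% of control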; note: strong numbers were not always called active
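Material: RFP-PRO-GFP reporter HT1080 cells. Dosing: single-point 20 µM compound, 1% DMSO. Controls: DMSO and RFP-L50D-GFP cell wells. Timing: cells overnight before dosing, compound overnight, 37 °C, 5% CO2. Measure: GFP/RFP fluorescence ratio.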
MT1-MMP act inh RFP: second read-out of MT1-MMP act inh, no call of its own (marks repeat the call); RFP signal change, %; measured here: RFP expression control read;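 0 = vehicle wells; hits needed this value within 50% of zero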
* marks the source's active call; other numbers are inactive results; & = joins results of further samples.

SMILES	Yeast UUG start	MT1-MMP act inh	MT1-MMP act inh RFP
NC(=O)c1ccccc1OCC(=O)N1CCC(Cc2ccccc2)CC1	4	10	-29
COCCNC(=O)C1(C)CCN(C(=O)c2cccc(C)c2C)C1 (stereo unspecified)	1	0	-3
O=C(Nc1ncccc1O)c1cccc(S(=O)(=O)N2CCN(c3ccc(F)cc3)CC2)c1	-9	-7	-7
CCC(=O)Nc1ccc(C(=O)COC(=O)c2sc(C)nc2C)cc1	-8	7	0
O=C(COC(=O)c1cc(S(=O)(=O)N2CCOCC2)ccc1F)NC1CCCCC1	-7	0	1
C=CCC1CCCCC1=C(C#N)c1ccccc1 (stereo unspecified)	-11	-1	3
CCc1nc2c(OCc3cccc(Cl)c3)cccn2c1N(C)C(=O)C(C)C	-16	-1	-3
O=C(NNC(=O)c1cccc2ccccc12)c1ccc(Cl)c(Cl)c1	-17	4	-2
O=C(CSc1nnc(-c2ccco2)o1)Nc1c(F)cccc1F	-16	-3	-1
S=c1[nH]nc(SCc2ccccc2)c2[nH]cnc12	-20	8	2
CCNC(=O)C1(C)CCN(C(=O)c2ccc(C#N)cc2)C1 (stereo unspecified)	-5	1	-1
O=C(Nc1ccc(N2CCOCC2)cc1)c1ccc(Cl)c(S(=O)(=O)N2CCCCC2)c1	2	17	-32
COc1cc(OC)c(C(=O)OCC(=O)Nc2cccc(S(=O)(=O)NC3=NCCCCC3)c2)cc1OC	5	2	-4
COc1ccc(NC(=O)C[C@H]2C(=O)N(Cc3ccccc3)C[C@@H]2c2ccc(OC)cc2)cc1	-9	0	1
CC(NC(=O)CN1c2cccc3cccc(c23)S1(=O)=O)c1ccccc1 (stereo unspecified)	3	0	2
CCCn1c(N)c(C(=O)CN(C)CC(=O)Nc2ccccc2C(F)(F)F)c(=O)[nH]c1=O	-8	-5	0
Cc1nc2c(N)nn(C)c2nc1C	-14	-3	4
CNC(=O)C[C@H]1C(=O)N(CCc2ccccc2)C[C@@H]1CSC	-11	0	3
Cc1ccccc1-n1nnnc1SCC(=O)NNC(=O)c1ccc(NC(=O)CC#N)cc1	-10	4	4
COc1cccc(CC(=O)Nc2cc(S(=O)(=O)N3CCCCC3)ccc2C)c1	1	6	-4
COc1ccc(-c2cc(C(=O)N(C)CC(=O)Nc3ccccc3C(F)(F)F)c3ccccc3n2)cc1OC	8	-3	0
CC(=O)Nc1ccc(C(=O)COC(=O)CN2C(=O)NC3(CCCCC3C)C2=O)cc1 (stereo unspecified)	-3	5	4
COc1cccc(CN(C)C(=O)CN2C(=O)NC(c3ccccc3)(c3ccccc3)C2=O)c1OC	-20	5	-3
C[C@H](CO)N1C[C@H](C)[C@@H](CN(C)S(=O)(=O)c2ccc3c(c2)OCCCO3)OCc2cnnn2CCCC1=O	0&-18	6	7
COc1cc(NC(=O)c2ccc(S(=O)(=O)N(C)c3ccccc3)cc2)cc(OC)c1	0	-2	-7
CCc1cccc(C)c1NC(=O)CCCN1C(=O)CN(C)C1=O	-7	1	-1
CC[C@H]1CCCCc2ccccc2[C@@H](C(=O)C[C@@H](O)CC(C)=O)OC1=O	6	-3	2
Cc1cc(OCCN2CCN(S(=O)(=O)c3ccccc3F)CC2)ccc1C(C)C	-10	2	-5
COc1cc(OC)cc(C(=O)N[C@H](C(=O)OCC(=O)Nc2cccnc2Cl)C(C)C)c1	-7	5	0
COc1ccc(C(=O)N2CCCC(C)(C(=O)NS(=O)(=O)C3CC3)C2)cc1 (stereo unspecified)	1	-2	3

Entries listed so far that have four or more nitrogen atoms:
SMILES	Yeast UUG start	MT1-MMP act inh	MT1-MMP act inh RFP
O=C(Nc1ncccc1O)c1cccc(S(=O)(=O)N2CCN(c3ccc(F)cc3)CC2)c1	-9	-7	-7
S=c1[nH]nc(SCc2ccccc2)c2[nH]cnc12	-20	8	2
CCCn1c(N)c(C(=O)CN(C)CC(=O)Nc2ccccc2C(F)(F)F)c(=O)[nH]c1=O	-8	-5	0
Cc1nc2c(N)nn(C)c2nc1C	-14	-3	4
Cc1ccccc1-n1nnnc1SCC(=O)NNC(=O)c1ccc(NC(=O)CC#N)cc1	-10	4	4
C[C@H](CO)N1C[C@H](C)[C@@H](CN(C)S(=O)(=O)c2ccc3c(c2)OCCCO3)OCc2cnnn2CCCC1=O	0&-18	6	7

Additional compounds.
SMILES	Yeast UUG start	MT1-MMP act inh	MT1-MMP act inh RFP
CCN(C(=O)COC(=O)/C(=C/c1ccccc1)NC(C)=O)c1c(N)n(Cc2ccccc2)c(=O)[nH]c1=O	0	-1	-5
C[C@H](CO)N1C[C@H](C)[C@@H](CN(C)C(=O)C2CCCCC2)OCc2cn(nn2)CCCC1=O	-6&2	3	5
CC1(c2ccc3c(c2)OCCCO3)NC(=O)N(CC(=O)Nc2cccc(C#N)c2)C1=O (stereo unspecified)	2	0	-1
COCCCN1C(=O)C(CC(=O)NCCCN(C)C)CC(C(=O)N(C(C)C)C(C)C)=C1C (stereo unspecified)	-2	5	6
O=C(NCCCn1ccnc1)c1[nH]c(C(F)(F)F)nc1-c1ccccc1	0	1	6
CCN(CC)S(=O)(=O)c1ccc(OC)c(NC(=O)c2ccc(N3CCCC3=O)cc2)c1	-7	-2	2
C=CCn1c(SCC(=O)c2c(N)n(C3CC3)c(=O)[nH]c2=O)nnc1-c1ccoc1C	-23	1	-3
CCN1CCN(c2ccc(S(=O)(=O)N3CCCCC3)cc2NC(=O)/C=C/c2ccc(Cl)cc2)CC1	8	6	-1
COCCN(CC(=O)Nc1cccc(C)c1C)C(=O)Cn1c(=O)cnc2ccccc21	-16	-2	5
Nn1c(Cc2ccccc2)nnc1Cc1ccccc1	-10	3	3
CCCc1nc(SCC(=O)c2ccc3c(c2)NC(=O)CO3)[nH]c(=O)c1CC	-19	0	2
CN1CCC(n2[nH]c(-c3ccccc3)c(Cc3ccccc3)c2=O)CC1	-19	0	-1
CCc1ccccc1OCC(=O)OCC(=O)Nc1cc(C)on1	-18	1	2
CC(C)(C)c1ccc(CC(=O)N2CCC2(C)C(=O)NS(=O)(=O)c2ccc(Cl)cc2)cc1 (stereo unspecified)	-4	7	0
CSCCC(NC(=O)COc1ccccc1)C(=O)N(C)Cc1ccc(Cl)cc1Cl (stereo unspecified)	-1	-8	-7
CCc1nc2c(OCc3ccc(C(=O)OC)cc3)cccn2c1N(C)C(=O)C(C)C	-18	0	-2
Nc1nnc2cc(Br)ccc2n1	-6	-6	6
CCOc1cc(N2CCOCC2)c(OCC)cc1NC(=O)CN1C(=O)NC(CC)(c2ccc(F)cc2)C1=O (stereo unspecified)	6	1	1
COc1ccccc1N1CCN(S(=O)(=O)CCNC(=O)c2cccs2)CC1	-17	4	2
CCOc1ccc(NC(=O)CN(C)Cc2ccc3c(c2)OCO3)cc1S(=O)(=O)N1CCCC1	1	1	-4

Single records (already shown). Order of values: Yeast UUG start	MT1-MMP act inh	MT1-MMP act inh RFP
CSCCC(NC(=O)COc1ccccc1)C(=O)N(C)Cc1ccc(Cl)cc1Cl (stereo unspecified) is entered as -1	-8	-7
CCOc1cc(N2CCOCC2)c(OCC)cc1NC(=O)CN1C(=O)NC(CC)(c2ccc(F)cc2)C1=O (stereo unspecified) is entered as 6	1	1
CN1CCC(n2[nH]c(-c3ccccc3)c(Cc3ccccc3)c2=O)CC1 is entered as -19	0	-1
CCCc1nc(SCC(=O)c2ccc3c(c2)NC(=O)CO3)[nH]c(=O)c1CC is entered as -19	0	2

Continued.
SMILES	Yeast UUG start	MT1-MMP act inh	MT1-MMP act inh RFP
O=C1OCCN1N=Cc1ccco1	-26	3	7
COc1ccc(-c2ccc(CN3C(C(C)C)C(=O)N(Cc4cn(CCC5OCCO5)nn4)CCS3(=O)=O)cc2)cc1OC (stereo unspecified)	7	1	0
Cc1ccc(C)c(S(=O)(=O)N2CCCC2CNC(=O)C(=O)Nc2ccccc2)c1 (stereo unspecified)	-11	-3	-5
COc1ccccc1C(=O)OCC(=O)NC(=O)NC1CCCCC1	-11	3	4
O=C(CN1CCN(S(=O)(=O)c2cc(Br)ccc2Br)CC1)NCc1ccccc1Cl	-12	-3	-6
CC(C)Oc1cc(F)ccc1-c1cc(C(=O)NCc2ccccc2)[nH]n1	-11	-5	-7
Cc1ccc(F)cc1NS(=O)(=O)c1ccc(Cl)s1	-6	-7	-6
CC1CCCC(NC(=O)NC(=O)COC(=O)C2=NN(c3ccccc3)C(=O)CC2)C1C (stereo unspecified)	4	4	2
Cc1ccccc1Nc1nnc(SCC(=O)c2c(N)n(C3CC3)c(=O)[nH]c2=O)s1	-11	-1	0
Cc1ccc2nc3n(c(=O)c2c1)-c1ncccc1C(=O)NC3Cc1ccccc1 (stereo unspecified)	-14	0	1
Cn1cnc2nc[nH]c2c1=O	-10	1	5
Cc1ccc(S(=O)(=O)N2CCOCC2)cc1C(=O)Nc1ccc2c(c1)OCCO2	-25	5	-1
Cc1cc2nccnc2cc1C	4	-2	1
O=C(Nc1ccc(OC(F)F)cc1)c1cc(S(=O)(=O)N2CCCCC2)ccc1N1CCOCC1	0	2	1
CC(=O)OC1CCC2(C)C(CCC3C2CC(=O)C2(C)C3CC(C(C(C)=O)C(C)=O)C2C(C)=O)C1 (stereo unspecified)	3	1	3
COc1ccc(CCC2=NCCN2C(CC(C)C)c2nc3ccccc3[nH]2)cc1 (stereo unspecified)	-12	1	1
CC(=O)C1=CCC(c2ccc(Cl)cc2)N(S(=O)(=O)c2ccccc2C)C1 (stereo unspecified)	-12	1	-3
Cc1ccccc1NC(=O)CON=C(N)c1ccccc1	-9	-1	-1
CC(C)C(NC(=O)c1ccccc1F)C(=O)NCc1ccc(S(=O)(=O)N2CCOCC2)cc1 (stereo unspecified)	-17	-3	4
O=C(/C=C/c1cccc([N+](=O)[O-])c1)OCC(=O)N1CCOCC1	4	3	2
CCCCN1C(=O)c2ccc(C(=O)OCC(=O)N3CCN(c4ccccc4)CC3)cc2C1=O	-2	2	-1
CCOc1ccccc1NC(=O)c1cc(-c2ccccn2)nc2ccccc12	-21	-6	-1
COc1ccc(Cc2c(C3CCCCC3)nc3ccc(Cl)cn23)c(C)c1	-11	-1	-4
Cc1ccc(CONC(=O)c2ccc(C)cc2)cc1	-2	5	3
CCOC(=O)C1(C)CCN1C(=O)c1cccc(C#N)c1 (stereo unspecified)	-16	1	2
Cc1ccc(CN2CC(C(=O)NCCC3=CCCCC3)CC2=O)cc1 (stereo unspecified)	-25	-4	-1
C=C1C(=O)OC2C1CCC(C)=C1C(=O)C3OC3(C)C12 (stereo unspecified)	-17	-6	-20
Nc1nc(-c2ccccc2)c(CCCOc2ccc([N+](=O)[O-])cc2)c(=O)[nH]1	-5	0	-7
CCOc1ccc(NC(=O)CN2C(=O)NC(C)(c3ccc4c(c3)OCCCO4)C2=O)cc1OCC (stereo unspecified)	0	7	2
CS(=O)(=O)Nc1ccc2c(c1)[C@H]1C[C@H](CC(=O)NCc3cccc(F)c3)O[C@@H](CO)[C@H]1O2	-16	1	3
CC(C)NC(=O)C1(N2C(=O)c3ccccc3C2=O)CCCC1	-4	-9	-1
CN1CCN(c2ncnc3c2ncn3[C@H]2CN(Cc3ccco3)C[C@@H](CO)O2)CC1	-10	1	6
CSc1ccccc1C(=O)OCC(=O)N1CCN(C(C)=O)CC1	-9	0	4
CC(=O)c1c(C)[nH]c(C(=O)Nc2cc(S(=O)(=O)N3CCCCC3)ccc2C)c1C	-1	15	0
O=C(OCCOc1ccccc1F)c1cccc(S(=O)(=O)N2CCOCC2)c1	-19	3	-1
COc1ccc(S(=O)(=O)N2CCCCCC2)cc1C(=O)NCCc1ccc(F)cc1	1	0	-5
Clc1cc(Cl)cc(Nc2ccccc2CN(C/C=C/c2ccc3c(c2)OCO3)Cc2ccccc2)c1	-11	0	0
c1ccc(Nc2cccc3ccccc23)cc1	-18	4	7
OCCN1CCN(c2cnc(-c3ccsc3)cn2)CC1	-32	0	1
CC1(CNC(=O)C(=O)NCC2(C)CO2)CO1 (stereo unspecified)	-13	4	4
COc1ccccc1-n1nnnc1SCC(=O)NCC1(N2CCCCC2)CCCCC1	4	3	5
COc1ccc(Cl)cc1CNC[C@H]1O[C@@H](n2ccc(N)nc2=O)[C@H](O)[C@@H]1O	-15	2	-3
CC1CCCC(NC(=O)COC(=O)c2cc(S(=O)(=O)N3CCOCC3)ccc2F)C1C (stereo unspecified)	-25	7	6
O=C(CN1C(=O)c2ccccc2C1=O)NC1(C(=O)O)CCCC1	-14	-2	3
CN(CC(=O)NCC(c1ccccc1)N1CCCC1)S(=O)(=O)c1ccc(Cl)cc1 (stereo unspecified)	4	0	2
CN(CC(=O)Nc1c(Cl)cccc1Cl)C(=O)CNC(=O)c1sc2ccccc2c1Cl	-16	3	-4
c1ccc2c(c1)Sc1cnccc1N2CC1CO1 (stereo unspecified)	3	-7	-9
Cc1ccc(S(=O)(=O)NC(=O)N2CCCC2)cc1	-17	-2	4
CCCN(C(=O)c1cc(S(=O)(=O)N2CCN(CC)CC2)ccc1Cl)C1CCS(=O)(=O)C1 (stereo unspecified)	3	-10	-1
COc1ccc(NC(=O)CN2C(=O)NC(C)(c3ccccc3)C2=O)cn1 (stereo unspecified)	3	-3	-1
Cc1ccc(NC(=O)CN2C(=O)NC(C)(C3CC3)C2=O)cc1S(=O)(=O)N1CCCCC1 (stereo unspecified)	0	4	-2
CC(=O)NC1CCC(OC(=O)Nc2ccccc2)CC1 (stereo unspecified)	-12	1	3

The list is partial; count on the stated rates, not on these rows.
